Screens as filed in PubChem BioAssay.
Tgondii IFNg = T. gondii growth inhibition under IFN-gamma | Toxoplasma gondii growth in IFN-gamma-treated host cells; hits give low values; reference of the scale not given here | activity change, negative = inhibition, %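 (about 20 µM by stock and volumes)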 | 3.8% of 69,000 active;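 active = below -70%; inconclusive = fit judged invalid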;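 also: host cells are HeLa cells infected with Toxoplasma gondii; parasite growth read as luciferase light; one replicate is shown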
* = called active by the depositor; i = inactive; u = inconclusive; & = joins results of further samples; ! = repeats disagree. Not all compounds are listed. The share of hits here may be higher or lower than overall.

canonical_smiles	Tgondii IFNg
O=C1C=C2C=CC3CC2(O1)C1CCCCN31 (stereo not given)	-50.8
COCCN1CCC2(CC1)CN(c1cccnc1)C(=O)CO2	117.6
CC(C)(O)CN1C[C@H]2CCC[C@@H](CNc3ncccn3)[C@@H]2C1	i
Cc1c2ccncc2c(C)c2c1[nH]c1ccccc12	-80.4*
CCOc1cncc(/C=C/CCNC)c1	-5.8
COc1ccccc1CN1[C@H](CO)[C@@H](c2ccccc2)C12CN(C(=O)Cc1ccccc1)C2	59.4
c1ccc(OCC2CC3NCCOC3C2)nc1 (stereo not given)	37.6
O=C(Cc1ccncc1)N1CCCCN2[C@H](CO)[C@H](c3ccc(C#Cc4ccccc4F)cc3)[C@H]2C1	-48.6
c1cnc2c(C3CCNCC3)[nH]nc2n1	2.9
CN(C)C(=O)N[C@H]1CNC2CCCOC21 (stereo not given in full)	94.4
C[C@@H]1C(=O)NC[C@@H]2CN(CC3CC3)C[C@@H]21	-29.3
Cc1nc(CN2C[C@@H]3CN(Cc4c(C)noc4C)C[C@@H]3C2)cs1	-66.9
O=C(NCc1ccco1)c1cc2cccnc2n(Cc2ccc(F)cc2)c1=O	-95.0*
CC(=O)NCCN1CC=C(c2cnn(Cc3ccc(F)cc3)c2)CC1	-1.4
C=CCN1CCN(c2ncc(F)cn2)Cc2ccc(C)nc21	37.3
C/C(=C\c1csc(C)n1)[C@H]1C[C@@H]2O[C@]2(C)CCC[C@H](C)[C@H](O)[C@@H](C)C(=O)C(C)(C)[C@@H](O)CC(=O)O1	u
COC1C2CCC1N(Cc1cccc(C)n1)C2 (stereo not given)	-28.0
O=C(Cc1ccsc1)NC1CCN(CC2(c3ccc(Cl)cc3)CCC2)CC1	-44.4
O=C(NCc1ccc2c(c1)OCO2)c1c(O)c2cccnc2n(Cc2ccccc2)c1=O	-76.5*
CNc1ccccc1C(=O)O	-4.5
COc1cccc(CNC(=O)c2cc3cccnc3n(Cc3ccccc3)c2=O)c1	60.9
C=C(C)[C@@H]1CCC(C)=C[C@H]1c1c(OC)cc(C)cc1OC	5.7&13.4
CN1CCN(c2ccc3ccccc3n2)CC1	1.8
CCS(=O)(=O)N1CCOC2(COCCN(Cc3ccncc3)C2)C1 (stereo not given)	6.7
CC(=O)C1CCC2C3CCC4C[C@H](O)CCC4(C)C3C[C@H](O)C12C (stereo not given in full)	-33.5
C=C1CC2C(CC[C@]3(C)C(=O)CCC23)[C@@]2(C)C=CC(=O)C=C12 (stereo not given in full)	16.7
CN1C[C@@H]2OCC[C@@H]2[C@H](C(=O)NCc2cccnc2)C1	9.0
CC(C)N1C[C@H]2CN(C(=O)c3cccs3)C[C@@H]2C1	13.5
COc1ccccc1N1CCNCC1	8.2
O=C(NCCc1cnc[nH]1)c1ccccc1C1CCNC1 (stereo not given)	1.8
C[C@H]1CN([C@@H](C)CO)C(=O)CCCn2nncc2CO[C@H]1CN(C)C(=O)Oc1cccc2ccccc12	170.9
CN(C)C(=O)CN1CCN(C)C(=O)C12CCN(c1ncccn1)C2 (stereo not given)	4.2
Cc1cc(C)cc(NC(=O)c2cc3cccnc3n(Cc3ccccc3)c2=O)c1	-16.3
O=C(Nc1ccc(Br)cc1F)c1cc2cccnc2n(Cc2ccccc2F)c1=O	31.4
NS(=O)(=O)c1ccc(NC(=O)c2cc3cccnc3n(Cc3ccc(F)cc3)c2=O)cc1	5.2
CCOC[C@@H]1CCC[C@]12CN(Cc1c(C)noc1C)CCO2	16.1
CCS(=O)(=O)N1C[C@@H]2c3ccccc3CN[C@@H]2C1	3.7
c1cncc(OC[C@@H]2CCC[C@]23CN(Cc2ccco2)CCO3)c1	-10.3
c1cnc(N2CCC3(COCCN(Cc4ccoc4)C3)C2)nc1 (stereo not given)	3.8
CCN1C[C@]2(COC(=O)c3ccccc3N3C(=O)C[C@H](C)C3=O)CC[C@H](OC)[C@@]34[C@@H]5C[C@H]6[C@H](OC)[C@@H]5[C@](O)(C[C@@H]6OC)[C@@](O)([C@@H](OC)[C@H]23)[C@@H]14	13.1
O=C(NC1CCCCC1)c1cc2cccnc2n(Cc2ccc(Cl)cc2)c1=O	-37.5
O=C(c1cnccn1)N1C[C@@H](c2cc(F)cc(F)c2)[C@@H]2[C@H]1C1CCN2CC1	-2.9
COc1ccc(NC(=O)c2cc3cccnc3n(Cc3ccc(F)cc3)c2=O)cc1OC	23.8
O=C(Nc1ccc(OC(F)(F)F)cc1)c1cc2cccnc2n(Cc2ccccc2F)c1=O	29.4
Cc1ccnc(CC(C)N(C)Cc2cc(=O)n3c4c(cccc24)CCC3)c1 (stereo not given)	5.0
Cc1cccc(CN2CCC3OCCCC3(COCC3CC3)C2)n1 (stereo not given)	6.2
C[C@@H]1CN(Cc2cccs2)C[C@]12CCN(c1cccnc1)C2=O	2.7
CN(C)[C@@H]1CN(C(=O)Cc2ccsc2)[C@H]2COC[C@@H]12	32.5
CCOC(=O)C1=C(C)OC(N)=C(C(=O)OCC)[C@@]12C(=O)N(CC(N)=O)c1ccccc12	14.1
CC12CN3CC(C)(CN(C1)C3c1cccs1)C2O (stereo not given)	39.5
CC(=O)O[C@@H]1CC2C(C)(C)C(=O)C=C[C@]2(C)C2CC[C@]3(C)C(=CC(=O)O[C@H]3c3ccoc3)[C@@]21C (stereo not given in full)	-87.6*
Cc1nn(Cc2ccccc2Cl)c(=N)s1	8.8
CN1CCN(c2ncnc(Cl)c2N)CC1	-3.4
CCC(=O)N1CCC2(CC1)C(=O)N(Cc1cccnc1)CCN2C	-2.1
CC(C)(C)NC(=O)c1cc2cccnc2n(Cc2ccc(F)cc2)c1=O	-20.2
CC(Cc1ccccc1F)NCCCC(=O)N(C)C (stereo not given)	8.1
O=C(Cc1ccccc1)N1CC2(C1)[C@H](c1ccccc1)[C@@H](CO)N2Cc1cccc(Cl)c1	-0.5
C=CCN1CC[C@@H]2[C@@H]1CCN2Cc1c(C)noc1C	-9.8
CCC1(CC)C(=O)NC(=O)NC1=O	8.9&12.1
COC(=O)N1CCN(C(=O)Cc2ccc(Cl)c(Cl)c2)C(CN2CCCC2)C1 (stereo not given)	6.3

Following part:
canonical_smiles	Tgondii IFNg
O=C(NCc1ccccc1Cl)c1cc2cccnc2n(Cc2ccccc2F)c1=O	78.9
CC(CN1CCN(Cc2cccc(Cl)c2)CC1)C(F)(F)F (stereo not given)	-4.2
CC(C)c1nccc(CN2CCC3(CC2)C(=O)NCCN3C)n1	-28.3
CC[C@H]1C2CC3[C@@H]4N(C)c5ccccc5[C@]45C[C@@H](C2C5O)N3[C@@H]1O (stereo not given in full)	4.4
O=C(NCc1ccc(Cl)cc1)c1cc2cccnc2n(Cc2ccccc2)c1=O	-66.3
C=CCOC[C@@H]1CCC[C@@]12CN(Cc1c(C)noc1C)CCO2	-24.3
C[C@]12CCC3c4ccc(OC(=O)N(CCCl)CCCl)cc4CCC3C1CC[C@@H]2O (stereo not given in full)	-65.4
Cc1cc(N2CCCN3CCC[C@H]3C2)nc(-c2ccccc2)n1	1.3
N#CC(C#N)=Cc1cc(O)c(O)c([N+](=O)[O-])c1	2.8
CCc1ccc(NC(=O)c2cc3cccnc3n(Cc3ccc(Cl)cc3)c2=O)cc1	50.0
O=C(Nc1ccc(F)cc1F)c1cc2cccnc2n(Cc2ccc(F)cc2)c1=O	77.0
O=C(NCc1ccc2c(c1)OCO2)c1cc2cccnc2n(Cc2ccccc2F)c1=O	75.5
CC(C)(C)NCC(O)c1cc(Cl)c(N)c(Cl)c1 (stereo not given)	11.2&12.3
Cc1nc(CN2CC3(CCNCC3)OCC2=O)cs1	19.1
Fc1ccc(CN2CCC3(CC(Nc4ncccn4)CO3)C2)cc1 (stereo not given)	1.5

Gathered by group, the compounds so far containing a CF3 group (2)
canonical_smiles	Tgondii IFNg
O=C(Nc1ccc(OC(F)(F)F)cc1)c1cc2cccnc2n(Cc2ccccc2F)c1=O	29.4
CC(CN1CCN(Cc2cccc(Cl)c2)CC1)C(F)(F)F (stereo not given)	-4.2

Additional compounds follow:
canonical_smiles	Tgondii IFNg
CCN(CC)CCCC(C)NC(=O)c1cc2cccnc2n(Cc2ccc(F)cc2)c1=O (stereo not given)	u
COc1cccc([C@@H]2CCN(Cc3n[nH]c(C)c3Cl)C[C@H]2O)c1	2.8
CCOCC(=O)N1C[C@@H]2CCN(Cc3c(C)noc3C)C[C@H]2C1	-45.9
CC1(C)C2CC(=O)[C@]3(C)C(CC[C@@]4(C)[C@H](c5ccoc5)OC(=O)[C@H]5O[C@]543)[C@@]2(C)C(=O)C[C@H]1O (stereo not given in full)	6.5
O=C(NC1CCCCCCCCCCC1)c1cc2cccnc2n(Cc2ccc(Cl)cc2)c1=O	-41.5
COCCN1C[C@H]2[C@@H](OC)CCN(S(=O)(=O)c3cccnc3)[C@H]2C1	-31.8
Cc1ccc2c(c1)Cc1c(C(=O)NN3CCCCC3)nn(-c3ccc(Cl)cc3Cl)c1-2	-74.6*!
CCCCc1ccc(NC(=O)c2cc3cccnc3n(Cc3ccc(F)cc3)c2=O)cc1	90.4
Oc1ccc2c3c1OC1c4c(c5ccccc5n4Cc4ccccc4)CC4(O)C(C2)N(CC2CC2)CCC314 (stereo not given)	-52.2
Oc1c(I)cc(I)cc1I	-1.2
C[C@H](CO)N1C[C@H](C)[C@H](CN(C)C(=O)Oc2cccc3ccccc23)OCc2cnnn2CCCC1=O	-15.9
CC(C)=CCCN1CCC(NC(=O)[C@](O)(c2ccccc2)C2CCCC2)CC1	-1.7
c1ccc(CCNCc2cccnc2)cc1	8.0
CCS(=O)(=O)NC[C@@]12COC[C@H]1CN(Cc1c(C)noc1C)C2	-20.4
CCN1CCOCC12CCN(c1nccc(C(F)(F)F)n1)CC2	68.6

Single entries from the entries so far:
Tgondii IFNg result of `CCS(=O)(=O)N1C[C@@H]2c3ccccc3CN[C@@H]2C1` → 3.7
Tgondii IFNg result of `c1cnc2c(C3CCNCC3)[nH]nc2n1` → 2.9
Tgondii IFNg result of `C=CCN1CC[C@@H]2[C@@H]1CCN2Cc1c(C)noc1C` → -9.8
Tgondii IFNg result of `O=C(Nc1ccc(F)cc1F)c1cc2cccnc2n(Cc2ccc(F)cc2)c1=O` → 77.0
Tgondii IFNg result of `COCCN1C[C@H]2[C@@H](OC)CCN(S(=O)(=O)c3cccnc3)[C@H]2C1` → -31.8

Additional compounds follow.
canonical_smiles	Tgondii IFNg
CN(C)c1cccc(C2CCCNC2)n1 (stereo not given)	2.1
CCC1COC2(CCCN(Cc3csnn3)C2)C1 (stereo not given)	1.7
CN1C2CCC1CC(OC(=O)c1ccc(Cl)cc1)C2 (stereo not given)	-29.2
C[C@]12CCC(=O)C=C1CC[C@@H]1[C@@H]2C(=O)C[C@]2(C)C(=O)CC[C@@H]12	14.4
CN(Cc1ccco1)[C@H]1CN(Cc2ccccn2)[C@@H]2CCCO[C@H]21	9.8
O=C(O)CCN1C[C@H](c2ccccc2)[C@@H]2[C@H]1C1CCN2CC1	-4.0
CN(C)C(=O)CCC(=O)N1C[C@H]2C[C@@H]1CN2	4.0
CC(Cc1ccccn1)NC1CCN(c2ccc(C(=O)N3CCc4ccccc4C3)cc2)CC1 (stereo not given)	-7.0
COCCN1CCO[C@H]2CN(S(=O)(=O)c3cccnc3)C[C@@H]2C1	1.6
Cc1cc(CN2CCO[C@@H]3[C@H]2CC[C@H]3OCC(=O)N(C)C)no1	8.7
Cc1nn(C)c(Cl)c1S(=O)(=O)N1C2CCC1c1cnc(N3CCOCC3)nc1C2 (stereo not given)	-1.5
O=C(NCCC1=CCCCC1)c1cc2cccnc2n(Cc2ccc(Cl)cc2)c1=O	-16.3
OCCN1CCOC2C(COc3ncccn3)CCC21 (stereo not given)	0.4
N#CC(O[C@@H]1O[C@H](CO[C@@H]2O[C@H](CO)[C@@H](O)[C@H](O)[C@H]2O)[C@@H](O)[C@H](O)[C@H]1O)c1ccccc1 (stereo not given in full)	14.9
Cn1cc(CN2CC[C@H]3[C@@H]2CCN3C(=O)Cc2ccccc2)cn1	-1.7
COc1ccc(CN2CCC3(CC2)COCCN3CC2CC2)cn1	-21.5
Cc1nc(CN2CCN(C(=O)Cc3ccc4c(c3)CC(C)O4)CC2)cs1 (stereo not given)	9.5
O=C(Nc1ccc(Oc2ccccc2)cc1)c1cc2cccnc2n(Cc2ccccc2F)c1=O	44.4
Cc1c(C(=O)c2cccc3ccccc23)c2cccc3c2n1[C@H](CN1CCOCC1)CO3	-90.1*
C[C@H]1CNCCc2ccc(Cl)cc21	15.2
CC(C)CC12CN3CCN(CC(C3)C1O)C2 (stereo not given)	5.0
Cc1cc(NC(=O)c2cc3cccnc3n(Cc3ccccc3)c2=O)ccc1Br	58.1
O=C(O)CN1CCOCC2(CC(CNc3cccnc3)CO2)C1 (stereo not given)	-32.3
O=C1CCCC2=C1C(c1cccnc1)Nc1ccccc1N2 (stereo not given)	-15.1
C=CCCC(=O)N1CC[C@@H]2OCCN(Cc3cccnc3)[C@@H]2C1	220.7
COc1ccc(-n2cc(C3=CCN(Cc4nc(C)cc(C)n4)CC3)cn2)cc1	62.0
O=C(CN1C(=O)c2ccccc2C1=O)Nc1ccc(Cl)cc1C(=O)c1ccccc1	8.4
Cc1cccc2cc(CN3CCCN4CCC[C@H]4C3)c(=O)[nH]c12	3.6
COc1cc2c3c(c1OC)-c1cc(O)ccc1CC3NCC2 (stereo not given)	-38.7
O=C1CNC[C@H]2[C@H](c3ccc(Br)cc3)[C@@H](CO)N12	14.9
O=C(c1cc(F)ccc1F)C1CCCN(Cc2ccsc2)C1 (stereo not given)	14.4
CC(CO)NC(=O)C1C=C2c3cccc4[nH]cc(c34)C[C@H]2N(C)C1 (stereo not given in full)	3.0&-21.0
O=C(N/N=C/c1ccc([N+](=O)[O-])o1)c1cc([N+](=O)[O-])cc([N+](=O)[O-])c1O	8.4
